Lassa entry inh: Lassa virus entry inhibition | Lassa virus pseudotype entry inhibition, cell reporter; control for the full effect not named in the record | 1.2% of 300,000 active | Potency, µM (series often up to 37.9 µM), for the others: at the top dose activity change, negative = inhibition, hits mostly inhibitors; active means well fitted inhibition curve with a large enough effect; inconclusive means small, poorly fitted or top-dose-only effect, or effect the other way; inactive means flat fitted curve, though single readings scatter; tested in HEK293 cells; note: % is set by controls: 0 for no effect and ±100 for the full control effect; nearly all actives have a fitted effect of over 50% in size; luciferase read-out
StopGo reporter: FMDV 2A StopGo reporter, luciferase signal. Potency, µM (highest dose often 57.9 µM), without a hit: top-dose signal change, negative = less light. human cells with a luciferase reporter of 2A StopGo recoding; control for the full effect not named in the record. 1.2% of 410,000 active. AID 1159524; active = well fitted falling curve with a large enough effect; inconclusive = small, poorly fitted or top-dose-only effect; inactive = no such curve, though single readings can be large or run the other way; tested in HEK293T cells; note: % is set by controls: 0 for no effect and ±100 for the full control effect; nearly all actives have a fitted effect of over 45% in size; luciferase light after 4 h
Marburg entry inh: inhibitors of Marburg virus binding or cell entry; Marburg virus pseudotyped entry inhibition, cell reporter; control for the full effect not named in the record; about a third of the inactives were read at about 46 µM; Potency, µM (series often up to 37.8 µM), for inactives: top-dose activity change, negative = inhibition, most hits filed as inhibitors; 1.8% of 300,000 active; AID 540276; active = well fitted inhibition curve with a large enough effect; inconclusive = small, poorly fitted or top-dose-only effect, or effect the other way; inactive = flat fitted curve, though single readings scatter; tested in HEK293 cells; about a fifth of its hits are not listed in these tables; note: % is set by controls: 0 for no effect and ±100 for the full control effect; luciferase read-out
NS1 inh: blocks influenza NS1 protein function; Potency, µM (doses to about 46.1 µM), for inactives: at the highest dose activity, positive = more growth; S. cerevisiae slowed by influenza A NS1, growth recovery by OD600; AID 2326; 0.4% of 270,000 active; active means well fitted rising curve with a large enough effect; inconclusive means small, poorly fitted or top-dose-only effect; inactive means no such curve, though single readings can be large or run the other way; note: nearly all actives have a fitted effect of over 50% in size
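Recovery from NS1-induced slow growth read by OD600 in budding yeast switched to galactose assay medium (pH 6.0, -URA) at 1:100 dilution. Compound 23 nl per well; the matching strain lacking NS1 serves as control.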
Cruzain Triton: blocks cruzain activity in presence of Triton detergent; P25779; purified cruzain, Z-FR-AMC fluorescence, 0.01% Triton; Potency, µM, inactives show max response, negative = inhibition, actives largely listed as inhibitors; 0.43% of 200,000 active; AID 1478;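 note: plate controls were neutral wells for no effect and buffer without enzyme for full effect; nearly all actives have a fitted effect of over 40% in size; top concentration of the series not given in the record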
Target sequence (P25779 123-467 limits assumed): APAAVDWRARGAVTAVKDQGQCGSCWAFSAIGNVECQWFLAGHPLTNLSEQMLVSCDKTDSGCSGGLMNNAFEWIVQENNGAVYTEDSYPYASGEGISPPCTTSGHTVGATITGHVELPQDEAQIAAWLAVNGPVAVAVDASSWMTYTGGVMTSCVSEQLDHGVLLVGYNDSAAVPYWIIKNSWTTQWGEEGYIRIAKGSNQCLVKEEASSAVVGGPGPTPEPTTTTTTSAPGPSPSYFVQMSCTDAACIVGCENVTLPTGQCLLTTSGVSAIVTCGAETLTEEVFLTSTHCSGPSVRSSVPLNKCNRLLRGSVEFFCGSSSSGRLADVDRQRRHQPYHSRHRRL
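Compounds were screened in titration against cruzain (1.5 nM) with 0.01% Triton X-100 to counter colloidal aggregation. Activity was the AMC fluorescence increase over 60 s after adding 2 uM Z-FR-AMC at pH 5.5.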
SARS PLP yeast: inhibitors of SARS-CoV papain-like protease in yeast; S. cerevisiae expressing SARS-CoV PLpro, growth rescue; control for the full effect not named in the record; Potency, µM (doses to about 32.9 µM), for inactives: top-dose activity, positive = growth rescue; 0.19% of 330,000 active; active means well fitted rising curve with a large enough effect; inconclusive means small, poorly fitted or top-dose-only effect; inactive means no such curve, though single readings can be large or run the other way; note: 0% is about no effect; nearly all actives have a fitted effect of over 55% in size; growth read by luminescence after 48 h
Cruzain noTriton: blocks cruzain activity in detergent-free assay; P25779; purified cruzain, Z-FR-AMC fluorescence, no detergent; Potency, µM, for inactives: max response, negative = inhibition, hits mostly inhibitors; 2.3% of 200,000 active; AID 1476;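 note: plate controls were enzyme without inhibitor for no effect and buffer without enzyme for full effect; nearly all actives have a fitted effect of over 40% in size; top concentration of the series not given in the record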
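Purified cruzain at 1.5 nM, pre-incubated 15 min with compound at room temperature in 100 mM sodium acetate pH 5.5, 5 mM DTT, 0.00005% Triton X-100. Reaction started with 2 uM Z-FR-AMC; AMC fluorescence increase over 60 s gives rate.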
RE007 growth inh: less growth of the S. pombe RE007 Vpr strain; 0.21% of 360,000 active; AID 651644; S. pombe RE007 Vpr strain, BacTiter-Glo ATP luminescence, 24 h; control for the full effect not named in the record; Potency, µM (series often up to 92.2 µM), for inactives: at the highest dose activity change, negative = less growth; active = well fitted falling curve with a large enough effect; inconclusive = small, poorly fitted or top-dose-only effect; inactive = no such curve, though single readings can be large or run the other way;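 note: % is set by controls: 0 for no effect and ±100 for the full control effect; nearly all actives have a fitted effect of over 50% in size; the assay follows cell death caused by Vpr and the record does not say whether a fall means rescue or toxicity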
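Fission yeast strain RE007, carrying one chromosomally integrated HIV-1 vpr copy, was seeded at OD 0.01 in PMG+AL medium with 23 nL pinned compound. After 24 h at 30 °C and 99% humidity, viability was read by BacTiter-Glo luminescence.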
* marks the source's active call; other numbers are inactive results; ? = inconclusive; / = not tested or not shown; & = joins results of further samples; [ ] = remark or other dose. Unless noted, calls come from the whole dose curve; as a rule, active = well fitted curve in the direction sought with a large enough effect; inconclusive = small, poorly fitted or top-dose-only effect, or another doubt; inactive = no such curve, though single readings can be large; an effect the other way counts as inactive or inconclusive. Potency is the fitted concentration of half-maximal effect. Compounds were not picked by outcome; any-hit rate near 4.8%.

SMILES	Lassa entry inh	StopGo reporter	Marburg entry inh	NS1 inh	Cruzain Triton	SARS PLP yeast	Cruzain noTriton	RE007 growth inh
COc1cc(OC)cc(-c2n[nH]c(=S)n2-c2ccc3c(c2)OCO3)c1	9%	-17%	0%	15%	-2.6%	2%	0%	0%
O=C(Nc1cccc(-n2cnnn2)c1)c1ccccc1Br	/	-10%	/	-3%	/	-2%	/	-1%
CCOC(=O)CN1C(=O)C(Sc2n[nH]c(-c3ccc(C)cc3)n2)CCc2ccccc21 (stereo not drawn)	?	28µM*	?	1%	-7.3%	-3%	13%	-21%
O=C(NCc1nnc(SCC(=O)N2CCCC2)o1)c1ccccc1	/	-19%	/	2%	/	-5%	/	-19%
CCN1CCN(Cc2cccnc2)CC1	-9%	-6%	?	-5%	/	-3%	/	5%
O=C(NC(=S)Nc1ccccc1[N+](=O)[O-])c1ccccc1Cl	16%	18%	1%[46.1 µM]	-3%	/	-1%	/	-2%
CCOC(=O)CS(=O)(=O)c1ccc2ccccc2c1	0%	28%	1%	-28%	4.3%	-6%	-11%	-10%
O=c1cc(CN2CCNCC2)nc2sccn12	2%	3%	0%	1%	/	0%	/	-11%
Cc1ccc(CNC(=O)C(=O)NCC2OCCN2C(=O)c2cccs2)cc1 (stereo not drawn)	?	-22%	?	-3%	6.2%	-14%	6%	12%
Cc1ccccc1NC(=O)Cn1nnc(C(=O)NCCc2ccccc2)c1N	?	-14%	-4%[46.1 µM]	/	-4.8%	/	-12%	/
CCOC(=O)c1c(NC(=O)CN2CCN(C(=O)c3ccco3)CC2)sc(C(N)=O)c1C	/	-12%	/	6%	/	0%	/	-6%
O=C(c1ccc(Cl)c([N+](=O)[O-])c1)N1CCN(Cc2ccc3c(c2)OCO3)CC1	-18%	?	6%[46.1 µM]	3%	/	0%	/	-11%
c1ccc(CCc2nn3c(Cn4cnc5ccccc54)nnc3s2)cc1	?	?	-18%	-111%	2.5%	7%	-3%	-3%
c1cnc(Oc2ccc3oc4ccccc4c3c2)nc1	-37%	22%	?	-11%	-2.9%	-14%	2%	3%
O=C(c1c[nH]c2ccc(S(=O)(=O)N3CCC4(CC3)OCCO4)cc2c1=O)N1CCC2(CC1)OCCO2	16%	-21%	-4%[46.1 µM]	/	/	0%	/	6%
CCOCCn1ccc2c(OCC(=O)Nc3ccccc3OC)cccc2c1=O	-27%	?	-58%[46.1 µM]	/	/	0%	/	11%
COc1ccccc1-c1cn[nH]c1-c1ccc(O)cc1O	/	?	/	18%	/	2%	/	7%
CCn1c(C)c2c([n+]1CC)CC(C)(C)CC2=O	7%	/	12%	-4%	2.8%	-7%	3%	5%
Cc1ccc(NC(=O)CN2C(=O)CCc3ccccc32)cc1C	13%[46.1 µM]	4%	/	/	-11%	/	-22%	/
COc1ccc(C(=O)Nc2nc3ccccc3s2)cc1	/	-71%	/	-80%	/	-9%	/	-29%

Some of the entries so far, comma-delimited.
Compound,Lassa entry inh,StopGo reporter,Marburg entry inh,NS1 inh,Cruzain Triton,SARS PLP yeast,Cruzain noTriton,RE007 growth inh
O=C(NC(=S)Nc1ccccc1[N+](=O)[O-])c1ccccc1Cl,16%,18%,1%[46.1 µM],-3%,/,-1%,/,-2%
CCOC(=O)CS(=O)(=O)c1ccc2ccccc2c1,0%,28%,1%,-28%,4.3%,-6%,-11%,-10%

(list continues)
SMILES	Lassa entry inh	StopGo reporter	Marburg entry inh	NS1 inh	Cruzain Triton	SARS PLP yeast	Cruzain noTriton	RE007 growth inh
CCN(C(=O)COC(=O)c1cc(C)n(C2CC2)c1C)c1ccccc1	-16%	-2%	12%	/	/	4%	/	-19%
COc1ccc(NC(=O)C2CCCNC2)cc1OCC(C)C (stereo not drawn)	?	0%	-27%	13%	2.3%	6%	-3%	22%
COc1ccc(NS(=O)(=O)c2cc3c(cc2C)N(C)CCO3)cc1	/	64%[activator]	/	-3%	/	0%	/	6%
Cc1cc(C)c(NC(=O)C2CCN(C(=O)N3CC(C)Oc4ccc(Cl)cc43)CC2)c(C)c1 (stereo not drawn)	?	?	/	/	-5.4%	/	?	/
CN1CC2CCCC3(C1)C(=O)NC1(CCCCC1)N=C23 (stereo not drawn)	11%	0%	?	6%	0.4%	-5%	-3%	17%
CCCCn1c(N)c(N(CCC(C)C)C(=O)c2sc3nc4n(c(=O)c3c2C)CCC4)c(=O)[nH]c1=O	/	0%	/	-2%	/	1%	/	3%
CCN(CC)c1ccc2cc(-c3nc(-c4ccc(OC)cc4)cs3)c(=O)oc2c1	1%	-23%	?	7%	-5.7%	9%	10µM*	?
COc1ccccc1/C=C/C(=O)N1CCOCC1	?	1%	3%	7%	-0.1%	-5%	-3%	3%
COc1ccc(C2C(Oc3ccccc3)C(=O)N2c2ccc(C)c(C)c2)cc1OC (stereo not drawn)	?	-5%	?	/	/	/	/	12%
N#Cc1c2c(c(N3CCN(CCO)CC3)n3c1nc1ccccc13)CCCC2	/	/	0%	-9%	-5.9%	-4%	8%	/
CS(=O)(=O)N1CCc2cc(C(=O)N3CCN(c4cccc(Cl)c4)CC3)ccc21	-7%[46.1 µM]	-18%&-26%	?	-2%	-6.2%	?	?	-4%
O=C(O)CSc1nnc(-c2ccccc2)o1	-5%	-11%	-1%	4%	-1.3%	2%	6%	33%
CC(Oc1ccc2c3c(c(=O)oc2c1)CCC3)C(=O)N[C@@H](Cc1ccccc1)C(=O)O (stereo partly drawn)	/	-17%	/	?	/	0%	/	6%
COc1cc(/C=C/C(=O)O)cc(S(=O)(=O)N2CCc3ccccc3C2)c1OC	-15%[46.1 µM]	11%	20%[46.1 µM]	10%	/	0%	/	10%
c1ccc(-c2nc3ccccc3o2)nc1	2%	23%	?	-5%	2.6%	-5%	-1%	0%
Cc1ccc(OCC(=O)NNC(=O)C2CCCO2)c(C)c1 (stereo not drawn)	12%	29%	12%[46.1 µM]	/	/	0%	/	-3%
O=C(Nc1ccc(F)cc1)N1CC2CC(C1)c1cccc(=O)n1C2 (stereo not drawn)	4%	15%	18%	-10%	0.5%	-3%	-3%	-4%
Cc1ccc(-n2c(SCC(=O)Nc3ccc4c(c3)OCO4)nnc2-c2ccccn2)cc1	-19%	-17%	-10%	9%	-2.2%	9%	12%	5%
O=C(NCCc1c[nH]c2ccccc12)c1ccc(S(=O)(=O)NCc2ccco2)cc1	-10%	0%	-13%&-13%	4%	-4.4%	-3%	?	-4%
CCCCn1c(N)c(N(CC)C(=O)c2cc(CC)c(C)s2)c(=O)[nH]c1=O	-21%	-4%	11%	/	/	0%	/	1%
CN(c1ccccc1)C(c1ccc(F)cc1)c1nnnn1CC1CCCO1 (stereo not drawn)	?	0%	9%&9%	0%	-0.1%	-7%	-6%	1%
CCCCN(CCCC)CCNC(=O)c1cn(CC)c2ccc(S(=O)(=O)N3CCCC3)cc2c1=O	/	-10%	/	-4%	/	-1%	/	3%
CC1=C(C/C=C(\C)CCCC(C)CCCC(C)CCCC(C)C)C(=O)c2ccccc2C1=O (stereo not drawn)	/	0%	/	/	1.9%	/	-13%	-7%
CCn1c(=O)c(C(=O)CN2CC(C)OC(C)C2)c(N)n(Cc2ccccc2)c1=O (stereo not drawn)	-5%	-4%	0%	-4%	-4.4%	4%	1%	17%
CC1=C(NCCc2ccccc2)CCC1=O	-19%	-17%	7%	-3%	6.3%	-3%	0%	16%
C/C(=N\Nc1ccc(Cl)c(Cl)c1)c1ccc(-n2ccnc2)cc1	?	-19%	?	-40%	-7.2%	-70%	?	-13%
COc1ccc(-c2nnc(SCC(=O)N3CCCc4ccccc43)o2)cc1OC	-21%	-10%	?	-34%	-5.2%	-4%	?	10%
Cc1nccn1CC(=O)N/N=C/c1ccccc1O	-29%	-22%	?	1%	/	1%	/	6%
Cc1ccc(-n2c(SCC(=O)Nc3cccc(S(N)(=O)=O)c3)nc3ccccc32)cc1	?	?	?	2%	-12%	-33%	7%	6%
COc1cc(/C=N/N2CCCCC2)cc([N+](=O)[O-])c1O	-6%[46.1 µM]	-11%	?	0%	/	-1%	/	5%
CN(C)c1nc(N)nc(CSc2nc3cc(Cl)ccc3o2)n1	?	40%[activator]	?	3%	-2.2%	-4%	20%	-3%
CN(C)S(=O)(=O)N1CCC(Oc2ccc(C(=O)N3C[C@@H]4CCC[C@H]3C4)cc2)CC1	-26%	3%	-11%	/	/	/	/	5%
Cc1ccc(CN2CC(C(=O)NCCCn3nc(C)cc3C)CC2=O)cc1 (stereo not drawn)	1%	-18%	23%	/	/	/	/	-9%
Cc1[nH]c2ccccc2c1C(=O)NS(=O)(=O)Nc1ccc(F)cc1	28%[46.1 µM]	-19%	6%[46.1 µM]	/	/	3%	/	-6%
Cc1cccc(N(C(=O)CNC(=O)c2ccco2)C(C(=O)NC2CCCC2)c2cccnc2)c1C (stereo not drawn)	16%[46.1 µM]	17%	0%[46.1 µM]	1%	/	1%	/	6%
O=C(CC(=O)Nc1ccc(Cl)cc1Cl)Nc1ccc(Cl)cc1Cl	-7%[46.1 µM]	-14%	?	1%	/	1%	/	-3%
N#CCCN(Cc1cccnc1)C(=S)Nc1ccccc1Cl	-3%	-6%	19%[46.1 µM]	/	/	0%	/	7%
CC1(C)Cc2ccccc2-c2nnc(-c3ccccn3)n21	-5%	-3%	5%	-3%	3.0%	4%	3%	-4%
CC(NC(=S)NC1CCCCC1)C(c1cccs1)N1CCOCC1 (stereo not drawn)	-4%	9%	-28%[46.1 µM]	-9%	/	-2%	/	-14%
Cc1cccc(NC(=O)Cn2c(=O)n(CCc3c[nH]c4ccccc34)c(=O)c3cccnc32)c1	-44%	/	-1%	4µM*	-2.1%	-3%	25µM*	/
COc1ccc(COc2cc(-c3cccc(OC)c3)nc3ccc(NC(=O)c4ccc(Cl)cc4)cc23)cc1	?	-15%	19%	21%	1.1%&-4.7%	4%	2.8µM*	2%
COc1ccccc1CNC(=O)CSC1=Nc2ccccc2N=C(c2ccc(F)cc2)C1	20%[46.1 µM]	-25%	/	/	-1.0%	/	0%	/
CCCOc1cccc(C(=O)N/N=C/c2ccoc2)c1	/	49%[activator]	/	-13%	/	-10%	/	11%

From PubChem BioAssay
